Ba CapD inh: blocks the Bacillus anthracis CapD enzyme; purified CapD enzyme, fluorescence intensity read-out; stronger effect = lower value; some hits fall short of the stated cut; 140,000 tested, 0.23% active; z-score (no concentration beside the values);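 active means z-score under -4 in either of two replicates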;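 further: stock transfer was 100 nL into about 40 µL; score is relative to mean and spread of the plate; one replicate is shown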
AID504770: growth inhibitors of E. coli YBA685 in a screen for V. cholerae RctB (chromosome II replication) inhibitors | E. coli YBA685 rctB-dependent plasmid, OD600 growth, 3 h; stronger effect = lower value | z-score (test concentration not listed) | 130,000 tested, 0.27% active | AID 504770;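 active means z-score under -2 on both plates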;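 further: wells of about 30 µL received 100 nL stock; score is relative to mean and SD of the test wells; the first replicate is given; strong numbers were not always called active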
* hit, by the source's call; . = no result given. Some of the compounds tested, so the mix of outcomes need not match the whole.

SMILES | Ba CapD inh | AID504770
Fc1ccc(NC(=S)N2CCC3(CC2)OCCO3)c(F)c1 | 0.07 | -0.55
COC(=O)c1c(C)oc2ccc(N(C(=O)C3CCCCC3)S(=O)(=O)c3cc(C)c(C)cc3C)cc12 | 0.775 | 0.1
CSc1cccc(NC(=S)N(C)C)c1 | -0.01 | -1.05
CNC(=O)CSCc1cc(C)cc(C)c1 | 0.485 | -0.4
Cc1ccc2nc(CN)[nH]c2c1 | . | 1.4
CCSc1nnc(-c2ccc(C)cc2)c2ccccc12 | -0.44 | .
O=C(NCN1CCC(Cc2ccccc2)CC1)c1nc(-c2ccncc2)no1 | 0.24 | -0.4
CSc1ccccc1NC(=O)C1CC(c2cccc(Br)c2)=NO1 (stereo not drawn) | 0.055 | 0.2
CC(=O)N1CCc2cc(S(=O)(=O)CCC(=O)Nc3ccc(C(F)(F)F)cc3)ccc21 | -0.24 | -0.8
Cc1cccc(N2CC(c3nc4ccccc4n3C)CC2=O)c1 (stereo not drawn) | . | -0.25
O=C(N/N=C/c1ccsc1)c1ccccc1CCc1ccccc1 | 0.605 | .
CC(C)CCC1(C)NC(=O)N(CC(=O)c2ccc3c(c2)OCO3)C1=O (stereo not drawn) | . | 1.4
O=C(Oc1ccccn1)C1COc2ccccc2O1 (stereo not drawn) | 0.79 | 1
CCOc1ncccc1C(=O)N1CCN(S(=O)(=O)c2ccc3c(c2)OCCO3)CC1 | . | -0.55
Cc1cc(C)c(C#N)c(SCC(=O)N(C)C2(C#N)CCCCC2)n1 | . | 0.25
CCC(=O)N(c1nnc(SCCCn2c(=O)c3c(ncn3C)n(C)c2=O)s1)C1CC1 | . | -1.25
Cc1cc2c(c(=O)n1CC1CCCO1)C(c1cccs1)C(C#N)=C(N)O2 (stereo not drawn) | -0.96 | 0.2
NC1=NC(=O)/C(=C/c2ccc(O)c(Br)c2)S1 | -1.28 | 0.15
CCN1CCCC1CNCC(O)COCC1CCCO1 (stereo not drawn) | . | -0.25
CCOC(=O)c1c(NC(=O)C(C)Sc2nnc(CNC(=O)c3ccco3)n2Cc2ccccc2)sc2c1CCC2 (stereo not drawn) | -0.025 | .
CN1C(=O)C(O)(C2OC(C)(C)CCC2=O)c2ccccc21 (stereo not drawn) | -0.43 | -0.8
O=C(NCC1CCN(c2ccc(S(=O)(=O)N3CCOCC3)cc2)CC1)Nc1cccc(F)c1 | . | -0.9
CCOC(=O)N1CCN(C(=O)c2ccc3c(c2)[nH]c(=S)n2c4ccccc4nc32)CC1 | -0.375 | .
Cc1cc(N2CC3CC(C2)c2cccc(=O)n2C3)n2ncnc2n1 (stereo not drawn) | . | 0.35
CC1CCCC2(C1)NC(=S)N(c1ccc(Cl)cc1)N2 (stereo not drawn) | -0.555 | .
CCOC(=O)N1CCC(NC(=O)c2c(C)nn(-c3ccc(F)cc3)c2-n2cccc2)CC1 | -0.165 | -0.35
COc1ccc(OC)c(C2NC(=O)NC(C)=C2C(=O)Nc2ccccc2C)c1 (stereo not drawn) | -0.235 | .
CC(Sc1nc2ccccc2n1C)C(=O)Nc1ccc(N2CCOCC2)cc1 (stereo not drawn) | . | 0.1
COc1ccc(N2CCN(CCNC(=O)Cn3ncc4c([nH]c5ccc(C)cc54)c3=O)CC2)cc1 | 1.08 | 0
O=C(NCCCN1CCOCC1)C1CCC(=O)N1C1CCCCC1 (stereo not drawn) | 0.265 | -0.45
Oc1cc2c(cc1C(c1ccc(C(F)(F)F)cc1)N1CCCCC1)OCO2 (stereo not drawn) | 0.38 | .
O=C(COc1ccccc1Cl)N/N=C/c1csc([N+](=O)[O-])c1 | -0.89 | .
CCOC(=O)C1C(c2ccccc2)NC(=O)NC1(O)C(F)(F)F (stereo not drawn) | -0.02 | -0.25
Nc1c(C(=O)NC2CCCCC2)nsc1C(=O)OCC(=O)NC1CCCCC1 | . | 1.8
CCc1ccc(N/C(SC)=C(/C#N)C(N)=O)cc1 | -0.515 | .
c1cncc(CNCCc2c[nH]c3ccccc23)c1 | . | -0.3
O=S(=O)(NCc1cccc(C(F)(F)F)c1)NCc1ccccc1F | -0.19 | .
CC(=O)Nc1ccc2nc(NC(=O)CCOc3ccccc3)sc2c1 | 0.215 | 1.25
O=C(c1ccc(CSc2ccccn2)o1)N1CCN(c2cnccn2)CC1 | 20.3 | .
Cc1ccc(CNC(=O)CSc2nc(NCCc3ccccc3)c3ccccc3n2)cc1 | 0.46 | -0.05
Clc1ccccc1Nc1ncnc(-n2cccc2)n1 | -0.565 | .
CCNc1sc(S(=O)(=O)CC)nc1S(=O)(=O)c1ccc(C)cc1 | 0.09 | -0.2
O=C(CCC1Nc2c3ccccc3nc(=S)n2C1=O)N1CCN(c2ccccc2)CC1 (stereo not drawn) | 0.265 | -1.05
CCN(CC)C(=O)c1nn(C)c(=O)c2ccccc12 | 0.005 | -0.55
CCc1cccc2c(CCNC(=O)COc3ccc(F)cc3F)c(C)[nH]c12 | 0.575 | 1.35
CCSC1=NCCN1C(=O)c1cccc(C(F)(F)F)c1 | . | -1.35
COC(=O)c1ccc(Oc2nc(C)cc(N)n2)cc1 | -0.55 | -0.3
C=CCNC(=O)CCC(=O)N(C1CC1)C1CCN(CCC)CC1 | -0.21 | .
CCOC(=O)c1nnn2c1nc(Sc1nnc(-c3ccncc3)o1)c1ccccc12 | 1.13 | 0.35
Cc1nn2c(C(F)(F)Cl)cc(-c3ccc(C(F)(F)F)cc3)nc2c1Cl | -0.14 | .
N#C/C(=C\Nc1ccc(Br)cc1)c1nc(-c2ccccc2)cs1 | -0.325 | 0.15
Cc1[nH]n(CCC#N)c(=O)c1C1=NCCCCC1 | . | 0.15
NC(=O)NC(=O)COc1ccccc1Br | . | -0.6
COc1cccc(C2=NS(=O)(=O)N(C)C(C(=O)N(C)C3CCCCC3)=C2)c1 | 0.485 | -1.05
CCCOC(=O)C1=C(C)NC2=C(C(=O)CC(c3ccc(OC)cc3)C2)C1c1cc(Br)c(O)c(OC)c1 (stereo not drawn) | 14.2 | .
CC(C)CC12CN3CCN(CC(C3)/C1=N/O)C2 | 0.31 | -0.35
COc1ccc(Cl)cc1S(=O)(=O)NCCCN1CCCC1=O | 0.23 | .
Cc1ccc(N2C(=O)c3n[nH]c(C)c3C2c2cccnc2)cc1 (stereo not drawn) | -0.195 | 0.4
Cc1cc2c(cc1C)NC(CC(=O)Nc1ccccc1C)C(=O)N2 (stereo not drawn) | 0.59 | 0.4
O=C(NC1CCCCC1)C(Cc1ccccc1)NS(=O)(=O)c1cccs1 (stereo not drawn) | -0.385 | -0.95
(more compounds)
SMILES | Ba CapD inh | AID504770
CCOC(=O)c1cnn(-c2ccc(Cl)c(Cl)c2)c1N | 0.705 | -1.2
CCN(CC)/N=N/c1[nH]nc2nc(C)cc(C)c12 | -1.48 | -7.55*
CCCc1cc(C(=O)OC)c(NC(=O)CCCC(=O)O)s1 | 0.055 | 1.3
Fc1ccc(CSc2nc3ncccc3[nH]2)c(Cl)c1 | 1.01 | 0.25
CCC(C)N1C(=O)/C(=C\c2cnn(-c3ccccc3)c2)C(=O)NC1=S (stereo not drawn) | 0.55 | -1.15
c1cncc(-c2csc(Nc3nc4cc5c(cc4s3)OCO5)n2)c1 | . | -1.3
COC(=O)c1c(NC(=O)CSc2nc(-c3ccco3)cc(C(F)(F)F)n2)sc2c1CCCC2 | 2.48 | 0.1
COc1ccc(S(=O)(=O)N(C)CCO)cc1-c1nnc2c3ccccc3c(C)nn12 | 0.015 | 0.25
O=C(O)CSCC(=O)Nc1cc(-c2ccccc2)[nH]n1 | 0.54 | -0.5
O=C(NCc1ccncc1)c1cc(-c2ccco2)nc2ccccc12 | 73.5 | 0.45
FC(F)(F)c1cccc(N2CN(CCCN3CCOCC3)CNC2=S)c1 | 0.235 | -0.55
CCN(CCN(C)C)C(=O)Cn1ncc2c1-c1cc(C)ccc1OC2 | 0.265 | 0.05
CCc1ccccc1NC(=O)Nc1cc(OC)cc(OC)c1 | 0.85 | 0.2
COc1ccc2c(c1)sc(=NC(=O)CSCC(=O)N1CCc3ccccc31)n2C | 0.07 | -1.05
CC(C)CCNC(=O)C1CCCCN1S(=O)(=O)c1ccc(F)cc1 (stereo not drawn) | -0.47 | -0.45
CC(=O)Nc1ccccc1OCC(O)CNCc1ccc(C(F)(F)F)cc1 (stereo not drawn) | 0.41 | .
O=C(c1ccccc1)c1coc2ccccc2c1=O | -0.265 | -0.65
Cn1c(=O)c2c(nc(Oc3cccc(/C=N/NC(=O)c4nonc4N)c3)n2C)n(C)c1=O | -0.51 | -0.6
O=C(NNC(=O)c1sccc1-n1cccc1)c1cccc(C(F)(F)F)c1 | -0.555 | .
Cc1ccc(C)n1-c1ccc(C(=O)OCC(=O)c2cccs2)cc1 | . | 0.35
CCS(=O)(=O)N1CCn2c(nc3ccccc32)C1 | -0.865 | -0.5
C/C(=N\OCC(=O)Nc1ccc(S(=O)(=O)N2CCOCC2)cc1)c1ccc2c(c1)OCCO2 | . | -0.1
CC(=O)N1CCc2c(sc(NC(=O)c3ccc(C#N)cc3)c2C#N)C1 | 0.01 | 0.05
c1cncc(-c2nc(-c3ccncc3)ncc2-c2ccncc2)c1 | -0.375 | .
Nc1c(-c2nc(-c3ccc4c(c3)OCO4)no2)nnn1-c1cccc(C(F)(F)F)c1 | -1.26 | -0.8
O=C(C1CCCCC1)N(c1ccc(Cl)nn1)C1CCCCC1 | . | 0.95
N#CSCC(=O)c1ccccc1 | -0.695 | -3.6*
CCCS(=O)(=O)c1csc(C(=O)OC)c1NNS(=O)(=O)c1ccccc1C(F)(F)F | 0.675 | -0.15
CC(C)CCNCC(O)Cn1c2ccc(Cl)cc2c2cc(Cl)ccc21 (stereo not drawn) | 0.195 | .
COCc1cc(C)nc2snc(Br)c12 | 0.725 | -0.3
CC(C)c1c(C#N)c(N)nc2sc(C(=O)c3ccc([N+](=O)[O-])cc3)c(N)c12 | -0.05 | .
Cc1nc(N2CCOCC2)c2c(C)c(C(=O)Nc3ccc(Cl)cc3)sc2n1 | 0.33 | .
CC1(C)CC(=O)C2=C(C1)c1c(ccc3ccccc13)NC2c1ccc(Br)o1 (stereo not drawn) | 17.1 | 0.2
CCN1C(=O)/C(=N\N2C(=O)CSC2=S)c2ccccc21 | . | 0.9
CC(C)(C)C(=O)O/N=C(\N)Cc1ccc(-c2csnn2)cc1 | 0.72 | -0.1
COc1ccc(CCNC(=O)c2ccc(Cl)cc2Cl)cc1OC | -0.495 | .
COc1ccc(NC(=O)c2sc3nc4c(c(-c5ccc(C)o5)c3c2N)CCCC4)cc1 | -0.475 | .
OCCN(CC(O)Cn1ccc2ccccc21)CC(O)Cn1ccc2ccccc21 (stereo not drawn) | . | -0.55
O=C(Nc1ccccc1C(F)(F)F)C1CC2CCCC(C1)C2=O (stereo not drawn) | . | -0.65
N#Cc1c(C(F)(F)F)cc(-c2ccco2)nc1SCc1ccncc1 | . | 2.25
CC(C)S(=O)(=O)c1cscc1N/C=C(/C#N)C(=O)c1cccs1 | -1.2 | -0.85
COc1cc2c(C#N)c(OC)nc3c2c(n1)NC(C)(c1ccc(Br)cc1)N3 (stereo not drawn) | . | 0.1
CC(=O)Oc1nc(-c2ccc(C(C)(C)C)cc2)n(-c2ccccc2)n1 | -0.59 | -0.2
Cc1nc(C(F)(F)F)ccc1C(=O)NCc1nc(-c2ccc(C(F)(F)F)cc2)no1 | 0.74 | -0.05
CC(C)(CO)NC(=O)c1ccc(Cl)c(S(=O)(=O)N2CCCCC2)c1 | . | -1.5
COc1ccc(CCn2cnc3oc(-c4ccccc4)c(-c4ccccc4)c3c2=N)cc1OC | -0.7 | -0.1
Cc1cccc(C(CC(=O)N2CCCC2)c2ccccc2)c1O (stereo not drawn) | -0.45 | -0.75
Cc1onc(-c2ccccc2)c1C(=O)Nc1nnc(N2C(C)CCCC2C)s1 (stereo not drawn) | -0.5 | -0.4
COc1cc(C(=O)NN)cc(OC)c1OC | 0.325 | .
COc1cccc(-n2cnnc2SCC(=O)c2ccc(CNC(=O)C(C)(C)C)s2)c1 | . | 1.05
Cc1cccc(CN2CCN(S(=O)(=O)c3ccc(Br)s3)CC2)n1 | 0.545 | .
CCc1c(C)sc(NC(=O)C2c3ccccc3Oc3ccccc32)c1C(=O)OC | 0.215 | 0.05
FC(F)(F)c1ccc2nc(SCc3ccc(Br)cc3)[nH]c2c1 | 0.145 | -0.1

Molecules shown so far containing a Cl atom, in the order listed:
SMILES | Ba CapD inh | AID504770
CC1CCCC2(C1)NC(=S)N(c1ccc(Cl)cc1)N2 (stereo not drawn) | -0.555 | .
O=C(COc1ccccc1Cl)N/N=C/c1csc([N+](=O)[O-])c1 | -0.89 | .
Clc1ccccc1Nc1ncnc(-n2cccc2)n1 | -0.565 | .
Cc1nn2c(C(F)(F)Cl)cc(-c3ccc(C(F)(F)F)cc3)nc2c1Cl | -0.14 | .
COc1ccc(Cl)cc1S(=O)(=O)NCCCN1CCCC1=O | 0.23 | .
CCOC(=O)c1cnn(-c2ccc(Cl)c(Cl)c2)c1N | 0.705 | -1.2
Fc1ccc(CSc2nc3ncccc3[nH]2)c(Cl)c1 | 1.01 | 0.25
O=C(C1CCCCC1)N(c1ccc(Cl)nn1)C1CCCCC1 | . | 0.95
CC(C)CCNCC(O)Cn1c2ccc(Cl)cc2c2cc(Cl)ccc21 (stereo not drawn) | 0.195 | .
Cc1nc(N2CCOCC2)c2c(C)c(C(=O)Nc3ccc(Cl)cc3)sc2n1 | 0.33 | .
COc1ccc(CCNC(=O)c2ccc(Cl)cc2Cl)cc1OC | -0.495 | .
CC(C)(CO)NC(=O)c1ccc(Cl)c(S(=O)(=O)N2CCCCC2)c1 | . | -1.5
